NPYLR7 ag: mosquito NPYLR7 agonism. HEK293T NPYLR7/Galpha15, GCaMP6s calcium fluorescence. activation, % at 10 µM. 0.15% of 270,000 active; in the data active = activation above about 40%;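 note: 0% = vehicle and 100% = reference agonist at the receptor; some compounds past the cut are filed as inactive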
NPYLR7 ag max-min: second read-out of NPYLR7 ag, no call of its own (marks repeat the call); activation, %; measured here: Max-Min RFU normalised activation; some inactives read as strong as hits;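 span of the calcium signal over five minutes; 0% = vehicle and 100% = native peptide agonist; compound fluorescence can raise it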
* = called active by the depositor; & = joins results of further samples. Not all compounds are listed, so the mix of outcomes need not match the whole.

SMILES	NPYLR7 ag	NPYLR7 ag max-min
CCC(CO)N(Cc1ccccn1)C(=O)c1cnn2ccccc12 (stereo not drawn)	1	-1
Cc1cc(C(C)NC(=O)NCc2ncnn2C)cc(C)c1F (stereo not drawn)	-15	-21
CC(C(=O)NCCc1ccc(F)cc1)N1CCN(C2=NCC(C)(C)S2)CC1 (stereo not drawn)	1	-1
COc1ccc(C(=O)/C=C/c2ccc(N3N=C(c4ccccc4)CC3c3ccccc3)cc2)cc1 (stereo not drawn)	-1	-6
CC1CCN(c2nc(N)c([N+](=O)[O-])c(NCc3ccco3)n2)CC1	12	11
CCC1CN(CCC(=O)N2CCN(c3nc(C)cnc3C)CC2)Cc2ccc(Cl)cc2O1 (stereo not drawn)	2	-1
COCCN(C(=O)C1CCC1)c1c(N)n(CC(C)C)c(=O)[nH]c1=O	1	0
COC(=O)c1cc(C(=O)OC)cc(S(=O)(=O)Nc2ccc(C)c(S(N)(=O)=O)c2)c1	2	23
CC(OC(=O)C1CCN(C(=O)c2ccc(F)cc2F)CC1)C(=O)N1CCNC1=O (stereo not drawn)	-2	9
Nc1ncc(Cc2ccc(Cl)cc2Cl)s1	-4	-6
C=C(C)C1Cc2c(C)nn(-c3cccc4ccccc34)c2C1 (stereo not drawn)	0	0
COc1ccccc1C=C1NC(=S)NC1=O	15	14
COCCCn1cc(C(=O)Nc2cccc(C)n2)c2nn(-c3ccccc3)c(=O)c-2c1	7	6
Oc1cccc(-c2cc(C3(CNc4cccc(OC(F)(F)F)c4)CC3)ccn2)c1	-15	-15
Cc1cccc(Cn2c(=O)c3c(nc4n(CCN5CCOCC5)c(C)cn34)n(C)c2=O)c1	-7	-11
CC(=O)Oc1ccc(Cn2c(C)c(C(=O)NCc3cccc(C)c3)sc2=O)cc1	10	4
O=C(CN1CCCC1C(=O)NCc1ccco1)Nc1ccc2c(c1)OCCCO2 (stereo not drawn)	3	-3
CCc1nc2ccc(C(=O)Nc3ccc(OC)c(OC)c3)cn2c1N(C)Cc1ccc(Cl)cc1	-5	16
C#CCNC(=O)N(CC1CC1C)C(C)C (stereo not drawn)	-7	-7
C=c1ccccc1=C1NN=C(NC(=O)NC(CC(C)C)c2ncnn2C)S1 (stereo not drawn)	-9	-11
CC(C)(C)n1ncc2c(=O)n(NC(=O)c3ccccc3[N+](=O)[O-])cnc21	-1	-3
Cc1sc2nc(C(F)(F)F)nc(N3CCNC(=O)C3)c2c1C	-2	-2
Cc1ccsc1C(=O)N1CC(=O)N2CCc3ccc(Cl)cc3C2C1 (stereo not drawn)	-12	-2
C=C1CCC2[C@](C)(CO)[C@H](O)CC[C@@]2(C)[C@@H]1C/C=C1/C(=O)OC[C@H]1O (stereo partly drawn)	-7&2	-13&2
CCCN1CCCc2cc(CCNC(=O)C(=O)Nc3cc(Cl)ccc3C)ccc21	7	1

(continued)
SMILES	NPYLR7 ag	NPYLR7 ag max-min
CCOC(=O)c1ccc(N=Cc2c(O)c([N+](=O)[O-])cc3oc4c(c23)CCCC4)cc1	-5	-8
CS(=O)(=O)NCCCN1CCCCCC1/C=C/c1ccccc1 (stereo not drawn)	0	-1
Cc1ccc(-n2ncc3c(C)nnc(SCc4cccnc4)c32)cc1C	-14	-20
O=C(CC1CCCC1)N(Cc1ccccc1)[C@H]1C[C@H]2CCOC[C@@]2(c2ccccc2)C1	3	16
O=C(CCC1CCN(C(=O)C2CCCO2)CC1)Nc1ccc(F)c(Cl)c1 (stereo not drawn)	0	-4
COc1ccc(OCc2cc(C(=O)N3CCOCC3)no2)c2ccccc12	0	-4
Cc1ccc(-n2nnc3c(=O)n(Cc4c(F)cccc4Cl)cnc32)cc1	8	12
O=C(Nc1ccc(OCc2ccccc2)nc1)NC1CCCNC1=O (stereo not drawn)	17	2
O=C(Nc1cccc(Cl)c1)C1COc2ccccc2O1 (stereo not drawn)	-1	23
Cc1cccc(Cn2cnc3c(nnn3-c3ccc(C)c(C)c3)c2=O)c1	-1	-4
CCCCC(=O)Nc1c(-c2ccc(OC)c(OC)c2)nc2ccccn12	8	10
COc1ccc(Cn2c(C)cc(O)c(C(c3ccncc3)N3CCN(CCO)CC3)c2=O)cc1 (stereo not drawn)	13	5
Cc1c(C)c(C(=O)NCc2ccc3c(c2)OCO3)n(Cc2cccc(C(F)(F)F)c2)c1C	3	15
C=CCn1c(SCC(=O)Nc2ccc(C)cc2)nc2sc3c(c2c1=O)CCC3	-5	-10
CCCc1cc(CN(C)Cc2nc[nH]c2C)[nH]n1	1	5
CCOC(=O)N1CCCC(C(=O)N2CCN(C)c3nc4ccccc4nc32)C1 (stereo not drawn)	15	6
Cc1cc(=O)[nH]c(-n2nc(-c3cccs3)cc2NC(=O)c2ccc(F)cc2)n1	-2	-3
CN1CCN2CCN(C(=O)c3cnon3)CC2C1=O (stereo not drawn)	1	3
CCn1c(CNC(=O)C23CC4CC(CC(C4)C2)C3)n[nH]c1=S	-3	-2
CCCc1cnc(C)nc1-c1cccc(NC(C)=O)c1	-4	-6
CCOC(=O)C1=C(C)NC2=C(C(=O)CC(c3ccc(Cl)cc3)C2)C1c1ccccc1OC (stereo not drawn)	-8	-14
CCNC(=O)C1CN(c2cc(Cl)nc(N)n2)C1	5	3
O=C(O)C1=C(C(=O)N2CCC3(CC2)CC(=O)c2cc(F)ccc2O3)CCC1	17	-3
Cc1nc(CC(=O)NCc2cccnc2Oc2ccccc2C)cs1	0	-4
CCS(=O)(=O)N1CCC(OC)c2ccccc2N(CC(=O)NC)C(=O)C1 (stereo not drawn)	3	3

Other entries.
SMILES	NPYLR7 ag	NPYLR7 ag max-min
CCc1nnc(NC(=O)C=Cc2cc(OC)cc(OC)c2)s1	20	7
O=C(CC1CSc2nc3c(c(=O)n21)CCCC3)N1CCOCC1 (stereo not drawn)	0	-1
Cc1[nH]n(-c2nc(-c3ccccc3)cs2)c(=O)c1N=Nc1cc(C(F)(F)F)ccc1Cl	-4	-8
CCn1nnc2c(Nc3ccc(OC)c(OC)c3)ncnc21	-5	-1
CCCSc1ncccc1C(=O)N1CCc2ccccc2C1	-8	-19
Cc1ccccc1CCC1CCCN(C(=O)c2cnc3cc(=O)[nH]n3c2C)C1 (stereo not drawn)	5	2
N#CCSc1cn(CC(=O)N2CCCCC2)c2ccccc12	-6	-8
CO/N=C(/C(=O)N1CCC(O)(Cc2ccccc2)CC1)c1csc(NC=O)n1	-8	-12
CC(C)Oc1ccc(C(O)=C2C(=O)C(=O)N(CCN3CCOCC3)C2c2ccncc2)cc1 (stereo not drawn)	11	12
O=C(CSc1nnc(Nc2ccc(F)cc2)s1)N1CCNC1=O	10	4
CSc1ccc(Cn2c(C)c(C(=O)NCCC#N)sc2=O)cc1	8	5
CCCCCNc1ncnc2sc3c(c12)CCCC3	9	6
Cc1cccc(NC(=O)CSc2nnc(NCC3CCCO3)s2)c1 (stereo not drawn)	1	6
COc1ccccc1-n1c(Cc2ccccc2)nnc1SCc1ccc(C(=O)NCc2cccc(C(F)(F)F)c2)cc1	-1	8
Cc1cc(O)c(C(c2ccncc2)N2CCC(Cc3ccccc3)CC2)c(=O)n1Cc1ccccn1 (stereo not drawn)	22	14
O=C(Nc1ccccc1)N1CCN(S(=O)(=O)c2ccc(Cl)cc2)CC1	2	1
CCn1cc(CN2CCC(n3nccc3NC(=O)C3CCCC3)CC2)c(C)n1	14&-5	6&-6
Cc1ccccc1Cn1c(C)c(C(=O)NCc2ccc3c(c2)OCO3)sc1=O	9	2
COc1ccc2c(C)nc(N3CCC4(CCCN(C)C4=O)C3)nc2c1 (stereo not drawn)	3	2
Cc1cc(Cl)cc(SCC(=O)O)c1Cl	-9	-9
Cc1ccc(Oc2cnn(-c3ccc(F)cc3)c(=O)c2Nc2cccc(C(=O)N3CCN(C)CC3)c2)cc1	-6	0
CC(=Nc1ccc(N(C)C)cc1)C1=C(O)c2ccccc2C1=O	-1	-6
O=C1C=CC(=O)C(c2ccc([N+](=O)[O-])cc2)=C1	-4	-9
COCCN1CCCc2ccc(NS(=O)(=O)c3ccc(C)s3)cc21	15	8
Cc1nc2c(c(NCc3ccc(C(=O)N4CCCC4)cc3)n1)CCNC2	-5	-9

Other structures follow.
SMILES	NPYLR7 ag	NPYLR7 ag max-min
O=C(NC1CCN(c2ccccc2C(=O)NCCc2cccs2)CC1)c1cccc(F)c1	19	21
CC(=O)OC(C(=O)N1CCC(CCc2ccccc2)CC1)c1ccccc1 (stereo not drawn)	1	6
CCOC(=O)c1c(C)n(-c2ccccc2)c2ccc(OC(=O)c3ccc([N+](=O)[O-])cc3)cc12	-3	-7
COc1cc(C(=O)NCC(=O)N=Nc2c(O)[nH]c3ccc([N+](=O)[O-])cc23)cc(OC)c1OC	-4	-7
O=C(/C=C/c1ccccc1)N1CCCN(c2nc(Cc3ccccc3)nc3onc(-c4ccccc4)c23)CC1	18	5
CC(C)NC(=O)c1nnc2n1CCN(C(=O)c1ccccc1)C2	4	4
CCSCCNC(=O)c1ccc(-c2cc(-c3cccc4ccccc34)[nH]n2)cc1	4	5
O=S(=O)(c1ccc(F)cc1)N1CCn2c(nc3ccccc32)C1	7	7
CCOC(C)c1nc(CNc2cccc3c2OCCO3)cs1 (stereo not drawn)	8	4
Cc1ccc(N2C(=O)CC(Sc3nnc(C)s3)C2=O)cc1 (stereo not drawn)	-5	-10
CCSc1nnc(NC(=O)CSc2nnc(CNC(=O)c3cccs3)n2-c2ccc(Cl)c(Cl)c2)s1	-7	-4
CCOC(=O)C=c1sc(=Cc2ccc(C(=O)OC)cc2)c(=O)n1CC(=O)N1CCOCC1	-4	-11
N#Cc1c(N)n(-c2ccc3ccccc3c2)c2nc3ccccc3nc12	8	13
CCC(=O)N(c1nnc(SCC(=O)Nc2cc(C)on2)s1)C1CC1	4	7
COc1ccc(CCN(C)C(=O)C[C@H]2C[C@@H](C(C)=O)C2(C)C)cc1OC	1	-13
N#CC(C(=O)c1ccc(I)cc1)c1nnc2n1CCCCC2 (stereo not drawn)	18	34
CCc1c(C)nn(CC(=O)NC(C)c2ccc(O)c(F)c2)c1C (stereo not drawn)	4	0
CCCCS(=O)(=O)NCC1CCCCC1	-4	-4
O=C(CN1C(=O)CSC(c2ccccc2F)c2c(-c3ccccc3)nn(-c3ccc(F)cc3)c21)NCc1ccncc1 (stereo not drawn)	-8	-6
CC(C)(C)c1cc2nc(-c3ccccc3F)cc(C(=O)NCc3ccccc3)n2n1	-4	4
Cc1cc(C(=O)N2CCN(Cc3cc(=O)c(OCc4ccc(C(C)(C)C)cc4)co3)CC2)n(C(C)(C)C)n1	17	3
COc1c[nH]c(C(=O)Nc2cccc(C(C)=O)c2)cc1=O	-4	-6
N#Cc1ccc(Cl)cc1NC(=O)CN1CCCC1c1ccccc1 (stereo not drawn)	-2	-1
CCC(O)CN(Cc1ccc(F)cc1)Cc1cccc(OC)c1OC (stereo not drawn)	18	24
CCN(CC)C(=O)c1cn2c(n1)CCC(c1cc(C(F)(F)F)cc(C(F)(F)F)c1)C2 (stereo not drawn)	15	5

Other records.
SMILES	NPYLR7 ag	NPYLR7 ag max-min
COCCN1CCC(c2[nH]cnc2-c2ccccc2)CC1	16	12
COC1(OC)N=C(N)C2(C#N)C(c3ccc(F)cc3)C12C#N (stereo not drawn)	6	2
C=CCNC(=O)N1CCCn2nc(-c3nc4ccccc4n3C)cc2C1	7	1
CC(=O)Nc1ccc(CCNC(=O)NCc2cc(F)cc(F)c2)cc1	9	3
CCOC(=O)c1nn(CCc2ccc(OC)cc2)c2c1CN(C(=O)c1cc(C)nc(C)n1)CC2	18	1
COc1ccc(N2C(=O)CC(N3CCN(Cc4ccc5c(c4)OCO5)CC3)C2=O)cc1 (stereo not drawn)	-1	-3
COc1ccc(S(=O)(=O)NC(=O)C2(C)CCN2C(=O)CCC2CCCC2)cc1OC (stereo not drawn)	0	-3
CN1C(=O)C(=Cc2ccc(C#N)cc2)N(C)C1=S	-1	6
COc1ccc2c(c1)C(C)(Cc1cccc(F)c1)C(=O)N2 (stereo not drawn)	3	4
Cc1csc2nc(CNC(C)C(C)n3cccn3)cc(=O)n12 (stereo not drawn)	3	10
O=C(Nc1nnc(Cc2ccccc2)s1)c1ccco1	-9&6	-12&-2
COc1nn2ccsc2c1C(=O)Nc1ccc2ncccc2c1	20	7
Cc1ccc(NC2(C(=O)N(C)Cc3nc4ccccc4[nH]3)CCCC2)cc1	21	15
COCCCN(Cc1csc(COc2ccccc2C)n1)C(=O)c1ccccc1C	-2	6

Molecules from the list above that have a Cl atom, in the order listed:
SMILES	NPYLR7 ag	NPYLR7 ag max-min
CCC1CN(CCC(=O)N2CCN(c3nc(C)cnc3C)CC2)Cc2ccc(Cl)cc2O1 (stereo not drawn)	2	-1
Nc1ncc(Cc2ccc(Cl)cc2Cl)s1	-4	-6
CCc1nc2ccc(C(=O)Nc3ccc(OC)c(OC)c3)cn2c1N(C)Cc1ccc(Cl)cc1	-5	16
Cc1ccsc1C(=O)N1CC(=O)N2CCc3ccc(Cl)cc3C2C1 (stereo not drawn)	-12	-2
CCCN1CCCc2cc(CCNC(=O)C(=O)Nc3cc(Cl)ccc3C)ccc21	7	1
O=C(CCC1CCN(C(=O)C2CCCO2)CC1)Nc1ccc(F)c(Cl)c1 (stereo not drawn)	0	-4
Cc1ccc(-n2nnc3c(=O)n(Cc4c(F)cccc4Cl)cnc32)cc1	8	12
O=C(Nc1cccc(Cl)c1)C1COc2ccccc2O1 (stereo not drawn)	-1	23
CCOC(=O)C1=C(C)NC2=C(C(=O)CC(c3ccc(Cl)cc3)C2)C1c1ccccc1OC (stereo not drawn)	-8	-14
CCNC(=O)C1CN(c2cc(Cl)nc(N)n2)C1	5	3
Cc1[nH]n(-c2nc(-c3ccccc3)cs2)c(=O)c1N=Nc1cc(C(F)(F)F)ccc1Cl	-4	-8
O=C(Nc1ccccc1)N1CCN(S(=O)(=O)c2ccc(Cl)cc2)CC1	2	1
Cc1cc(Cl)cc(SCC(=O)O)c1Cl	-9	-9
CCSc1nnc(NC(=O)CSc2nnc(CNC(=O)c3cccs3)n2-c2ccc(Cl)c(Cl)c2)s1	-7	-4
N#Cc1ccc(Cl)cc1NC(=O)CN1CCCC1c1ccccc1 (stereo not drawn)	-2	-1

From PubChem BioAssay
